# VDR inh: Inhibitors of the vitamin D receptor (VDR): qHTS | Vitamin D3 receptor (Homo sapiens), P11473 | VDR-SRC2-3 peptide fluorescence polarization, 2 h | Potency, µM, without a hit: max response, negative = inhibition, usual class: inhibitors | 400,000 compounds, 0.93% hits | AID 504847, 2011; active means well fitted inhibition curve with a large enough effect; inconclusive means small, poorly fitted or top-dose-only effect, or another doubt; inactive means no such curve, though single readings can be large or run the other way; further: series mostly up to about 120 µM
# Target sequence (P11473 whole entry, looked up): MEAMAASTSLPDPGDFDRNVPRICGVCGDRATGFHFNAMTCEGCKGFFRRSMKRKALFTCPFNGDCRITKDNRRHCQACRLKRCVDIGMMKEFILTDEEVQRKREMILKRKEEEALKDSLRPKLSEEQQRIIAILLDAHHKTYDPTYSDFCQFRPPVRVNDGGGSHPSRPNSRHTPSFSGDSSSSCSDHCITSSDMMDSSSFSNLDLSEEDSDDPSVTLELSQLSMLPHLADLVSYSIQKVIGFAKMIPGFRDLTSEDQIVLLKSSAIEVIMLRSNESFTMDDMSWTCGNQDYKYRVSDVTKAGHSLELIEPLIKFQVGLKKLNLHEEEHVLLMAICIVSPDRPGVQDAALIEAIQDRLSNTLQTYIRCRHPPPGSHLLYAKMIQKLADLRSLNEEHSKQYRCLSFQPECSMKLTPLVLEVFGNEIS
#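 Fluorescence polarization assay of small-molecule disruption of VDR binding to coregulator peptide SRC2-3. Compounds and controls pin-transferred, then read after 2 h incubation at ambient room temperature.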
# * = called active by the depositor; ? = inconclusive. On the % scale 0 is the no-effect control and ±100 the full control effect; potency means the concentration at half of the fitted maximal effect.
Compound,VDR inh
COc1ccc(C2NC(c3ccc(OC)c(OC)c3OC)C(C)C(=O)C2C)c(OC)c1OC (stereo unspecified),1.4%
CCOCCCn1c(=S)[nH]c2cc(C(=O)N3CCN(C)CC3)ccc2c1=O,-7.5%
CCn1c(CSc2nc(C)cs2)nc2cc(S(=O)(=O)N(C)C)ccc21,5.5%
CCC(C)NC(=O)C1CCCN(S(=O)(=O)c2ccc3c(c2)CC(C)N3C(=O)C2CC2)C1 (stereo unspecified),-5.3%
Cc1cccc(Cl)c1NC(=O)N1CCN(c2ccnc3cc(Cl)ccc23)CC1,9.4%
C=CCn1c2ccccc2c2nnc(SCC(=O)OCN3C(=O)c4ccccc4C3=O)nc21,-11.7%
COc1ccccc1N1CCN(C2CCCN(C(=O)CC(F)(F)F)C2)CC1 (stereo unspecified),-5.6%
CCN(c1ccccc1)S(=O)(=O)c1ccc(C(=O)NC2CCN(Cc3ccccc3)CC2)cc1,-14.2%
CC(c1ccccn1)N(C)C(=O)c1ccc2nc(Cc3ccccc3F)oc2c1 (stereo unspecified),-6.6%
CCN1C(=O)[C@H]2[C@H]3CN=C(SCc4ccc(C(=O)OC)cc4)N3[C@@](Cc3ccccc3)(C(=O)OC)[C@H]2C1=O,2.2%
CN(C)c1ccc(C2N3CC4(C)CN2CC(C)(C3)C4O)cc1 (stereo unspecified),7.4%
COc1ccc(C(=O)Nc2nnc(-c3ccccc3)o2)cc1OC,-13.7%
O=C(Cc1n[nH]c(=O)c2ccccc12)NCc1ccc(Cl)cc1,-1.4%
Nc1nc(SCC(=O)Nc2ccc(Br)cc2Br)n[nH]1,-7.6%
Cc1cc(F)ccc1NCc1ccccc1-c1nnc(-c2ccccc2Cl)o1,-5.1%

# The list goes on:
Compound,VDR inh
N#Cc1nc(Cc2cccc3ccccc23)oc1N1CCC(C(N)=O)CC1,-10.3%
C[C@H](NC(=O)c1ncn(Cc2ccccc2)c1C(=O)N[C@@H](C)c1ccccc1)c1ccccc1,-8.5%
CCOCCn1ccc2c(OCC(=O)Nc3cc(OC)ccc3OC)cccc2c1=O,-11.5%
O=C(CSc1nnc(CNC(=O)c2ccco2)o1)Nc1ccccc1C(F)(F)F,5.7%
COc1ccc(OC)c(S(=O)(=O)N2CCCc3ccccc32)c1,6.2%
Cn1c(/C(C#N)=C(\O)c2cc(Cl)sc2Cl)nc2ccccc21,-8.6%
CCc1nc(C(N)=O)c2[nH]c(=O)n(-c3ccccc3F)c2n1,13.0%
CC(CNc1ccc([N+](=O)[O-])c2cccnc12)Nc1c([N+](=O)[O-])cc(C(F)(F)F)cc1[N+](=O)[O-] (stereo unspecified),-9.5%
CC(=O)c1ccc(NC(=O)CSc2nc3ccccc3c(=O)n2CCCN2CCOCC2)cc1,-2.6%
O=C(Nc1ccccc1NS(=O)(=O)c1ccc(F)cc1)C1CCCC1,-16.4%
CC1CCCN(Cc2c(O)ccc3c(=O)c(-c4ccc(Cl)cc4)c(C(F)(F)F)oc23)C1 (stereo unspecified),0.4%
C/C(=C\c1ccccc1)CN1CCN(C(C)C)C(CCO)C1 (stereo unspecified),-8.9%
N/C(=N\S(=O)(=O)c1ccccc1)c1ccc([N+](=O)[O-])cc1,-14.7%
CSc1nnc(-c2ccc(S(=O)(=O)N3CCCC3)cc2)n1C,9.1%
COc1ccc(OCC(O)Cn2ccnc2C)cc1 (stereo unspecified),4.4%

# Further records.
Compound,VDR inh
O=C(NCc1ccccc1C(F)(F)F)C1CC(c2ccc(C(F)(F)F)cc2)=NO1 (stereo unspecified),-7.9%
CC(Sc1nnc(-c2ccc(Cl)cc2)n1C)C(N)=O (stereo unspecified),-6.0%
CC1CCN(S(=O)(=O)c2ccc3nc(N4CCN(c5ccc(F)cc5)CC4)ccc3c2)CC1,7.7%
COc1cc(C/C=C/c2ccccc2)c(OC)cc1O,50.1µM*
C=CCN(CC=C)C(=S)NC(=O)c1ccc(OC)cc1,-3.6%
COc1ccccc1OCCCCN1CCN(c2ccccc2OC)CC1,1.2%
CCCn1ccnc1SC(C)C(=O)Nc1c(C)n(C)n(-c2ccccc2)c1=O (stereo unspecified),20.3%
COC(=O)c1c(-c2ccccc2)csc1NC1=NS(=O)(=O)c2ccccc21,9.4%
O=C1CC(c2nc3ccccc3n2CCCOc2ccccc2)CN1c1ccc(F)cc1 (stereo unspecified),16.7%
CCOC(=O)c1c(NC(=O)C(=O)N/N=C/c2ccccc2OC)sc2c1CCCCC2,19.2%
CCOc1ccc(CCNC(=O)COc2cc(=O)n(C)c3ccccc23)cc1OCC,-0.7%
O=C(C1CCN(S(=O)(=O)c2cccc3cccnc23)CC1)N1CCN(c2ccccn2)CC1,-2.5%
Cn1cnnc1SCC(=O)NC1CCCc2ccccc21 (stereo unspecified),-1.5%
COc1cc(C(=O)Nc2ccc3c(c2)OCCO3)ccc1-n1cnnn1,-17.9%
O=C(NCC1CCN(Cc2ccccc2F)CC1)Nc1cccc(Br)c1,7.3%

# Additional compounds.
Compound,VDR inh
CN1CCN(C(=O)/C(=C/c2ccco2)NC(=O)c2ccccc2)CC1,-6.8%
Cc1cc(C(=O)Nc2c(C)nn(Cc3c(Cl)cccc3Cl)c2C)no1,3.3%
O=C(CCCCn1c(=O)c2ccccc2n(Cc2ccccc2)c1=O)NC1CCN(Cc2ccccc2)CC1,4.4%
Oc1cccc(/C=N/N2CCCCC2)c1O,-3.3%
CC1(C)CC(=O)c2cc(OCC(=O)O)ccc2O1,-11.8%
CCOc1ccccc1NC(=O)c1cc(S(=O)(=O)N2CCOCC2)ccc1C,-6.8%
CCc1noc(C)c1C(=O)NNC(=O)c1ccccc1Cl,-2.1%
COC(=O)c1nc(N2CCN(S(=O)(=O)c3ccc(C)cc3)CC2)c2ccccc2n1,-21.3%
CNC(=O)Cc1csc2ccc(Cl)cc12,-5.4%
N#Cc1ccc(/C=N/N=C(N)N)cc1,-4.4%
N#C[C@H]1C2OC2c2ccccc2N1C(=O)c1ccccc1 (stereo partly specified),-7.6%
O=C(/C=C/c1ccccc1)n1cnnc1SC/C=C/c1ccccc1,39.8µM*
Nn1c(SCC(=O)Nc2cccnc2Cl)nnc1-c1ccccc1,79.4µM*
Cc1ccc(-n2nnnc2SCC(=O)NNC(=O)c2ccco2)cc1C,7.1%
Cc1ccc(Nc2ccc3nonc3c2[N+](=O)[O-])cc1,-4.6%

# Rewritten field by field: entries from further up
COC(=O)c1nc(N2CCN(S(=O)(=O)c3ccc(C)cc3)CC2)c2ccccc2n1
  VDR inh: -21.3%
CNC(=O)Cc1csc2ccc(Cl)cc12
  VDR inh: -5.4%
N#Cc1ccc(/C=N/N=C(N)N)cc1
  VDR inh: -4.4%
N#C[C@H]1C2OC2c2ccccc2N1C(=O)c1ccccc1 (stereo partly specified)
  VDR inh: -7.6%

# (listing goes on)
Compound,VDR inh
O=C(Nc1nnc(C2CC2)s1)C1Cc2ccccc2CN1S(=O)(=O)c1ccccc1F (stereo unspecified),2.6%
COc1ccc(OC)c(S(=O)(=O)CC(O)COc2ccccc2Cl)c1 (stereo unspecified),-2.2%
CCOC(=O)COc1cccc2c(=O)n(CC(=O)NCc3ccc4c(c3)OCO4)ccc12,-16.6%
CCOc1ccc(NC(=O)CSc2ccc3nnc(-c4ccccn4)n3n2)cc1,-7.6%
COc1ccc(NS(=O)(=O)c2c(F)cc(F)c(Cl)c2F)cc1S(=O)(=O)N1CCCCC1,10.2%
CCCOc1ccc(C(=O)Nc2nonc2-c2ccc(OCC)cc2)cc1,8.0%
O=C(CSc1nnc(-c2ccc(F)cc2)c2ccccc12)Nc1c(F)cccc1F,9.1%
S=c1[nH]nc(COc2ccc3c(c2)OCO3)n1-c1ccccc1,-2.8%
O=C(CSc1nc2ccccc2o1)Nc1ccccc1N1CCCCCC1,3.1%
CN(C)S(=O)(=O)N1CCc2ccc(NC(=O)c3ccccc3Cl)cc2C1,2.7%
O=C(Nc1ccc(F)cc1F)N1CCc2c(sc3c2CCCC3)C1c1ccc(F)cc1 (stereo unspecified),-0.9%
CCN1CCc2c(sc(NC(=S)NC(=O)c3ccc(Cl)cc3)c2C(N)=O)C1,-8.8%
Cc1ccc(OCCC(=O)NNC(=O)c2cc(C)oc2C)cc1,-21.3%
C=CCn1c(C)cc(-c2csc(NC(=O)C3=COCCO3)n2)c1C,-18.6%
O=C(/C=C/c1ccco1)c1ccc(NC(=O)C23CC4CC(CC(C4)C2)C3)cc1,?

# (listing goes on)
Compound,VDR inh
CCN(CC(=O)Nc1ccc2c(c1)OCCO2)C(=O)/C=C/c1ccc(OC)cc1OC,5.5%
Cc1ccc2c(c1)c1ncn(Cc3ccc(F)cc3)c(=O)c1n2C,-0.8%
COc1ccc(NC(=O)C(C)Oc2ccc(/C(C)=N\O)cc2)cc1 (stereo unspecified),12.8%
Cc1ccc(NC(c2ccc(Cl)cc2)c2nnc(-c3cccc(F)c3)o2)cc1C (stereo unspecified),19.3%
Cc1ccc2c(CC(=O)NCC3COc4ccccc4O3)coc2c1 (stereo unspecified),4.0%
CCOC(=O)C1CCCN(C(=O)c2cc(S(=O)(=O)N3CCCCC3)c[nH]2)C1 (stereo unspecified),1.4%
N#Cc1cn(Cc2ccccc2)c2ccccc12,1.5%
COc1ccc(CCNCC(O)COc2ccc(Cl)cc2)cc1OC (stereo unspecified),9.9%
COCC(=O)Nc1nc2n(n1)C(c1ccccc1Cl)CC(c1ccc(OC)cc1)N2 (stereo unspecified),-8.4%
N#CC(C(=S)Nc1ccccc1)c1nc2ccccc2[nH]1 (stereo unspecified),-6.2%
CCOC(=O)c1c(C)n(S(=O)(=O)c2ccc(C)cc2)c2ccc(O)c(C(=O)O)c12,-5.3%
Cc1ccc(C(=O)NC2CCCCC2)cc1,-5.7%
COc1ccc(CC(=O)NC(C)c2nnc(SCC(=O)c3ccc(OC)cc3)n2C)cc1 (stereo unspecified),-11.5%
COCCNC(=O)c1cnc2sc(N3CCC(C)CC3)nn2c1=O,9.5%
CCn1c(SCc2c(F)cccc2Cl)nc(=O)c2c(C(=O)OC)cc(C3CC3)nc21,4.2%

# Next part:
Compound,VDR inh
COc1ccc(Nc2ccc(N3C(=O)CC(C)C3=O)cc2[N+](=O)[O-])cc1OC (stereo unspecified),-9.9%
COc1ccc(CC(=O)O/N=C(\N)c2ccccc2)cc1OC,-0.3%
COC(=O)c1cc2oc3ccccc3c2n1Cc1c(F)cccc1Cl,-15.7%
O=C(NCc1ccco1)Nc1cccs1,-1.6%
COc1ccc(-c2sc3cc4c(cc3c2-c2ccc(OCCN3CCCCC3)cc2)OCO4)cc1,9.3%
COC(=O)c1ccc(CSc2nnc3nc(C)cc(C)n23)cc1,-6.1%
COc1cc2oc(=O)cc(C)c2c(OC)c1OC,12.4%
CCOc1ccc(C(=O)OCC(=O)N(Cc2ccccc2)Cc2ccccc2)cc1OC,-8.8%
Cc1ccc(S(=O)(=O)C(CNC(=O)c2ccc(C(F)(F)F)cc2)c2ccco2)cc1 (stereo unspecified),7.5%
Cc1cccc(N2CCN(C(=O)c3ccc(Cl)c(NC4=NC5CS(=O)(=O)CC5S4)c3)CC2C)c1 (stereo unspecified),2.9%
CSCC[C@H](NC(=O)N1CCn2c1nc1ccccc12)C(=O)N[C@H](Cc1ccccc1)C(=O)O,?
Cc1ccc(-c2nn(-c3ccccc3)cc2/C=C(\C#N)c2cccc(C#N)c2)o1,-10.6%
COc1ccc(-c2[nH]ncc2CN(CC2CCC(=O)N2)C(C)C)cc1F (stereo unspecified),?
COc1cc(NC(=O)c2cncc(-c3ccc(C#N)cc3)c2)cc(C(=O)Nc2cccc(C(F)(F)F)c2)c1,0.7%
CCOCCCNC(=O)CSc1ccccc1,0.2%

# Additional records
Compound,VDR inh
COC(=O)CNC(=O)C1CC(=O)N(CCc2ccc(F)cc2)C1 (stereo unspecified),-14.3%
Cc1ccccc1/C=C/C(=O)NCC(=O)N1CCC(N(C)C2CCCCC2C)CC1 (stereo unspecified),-6.8%
CCOC(=O)c1c(C)[nH]c(C)c1S(=O)(=O)N1CCCC(C(=O)Nc2ccc(C)c(N(C)C)c2)C1 (stereo unspecified),-2.1%
COc1cccc(-n2c(SCC(=O)NCC3CCCO3)nc3c(c2=O)SCC3)c1 (stereo unspecified),2.6%
O=S(=O)(c1cc(F)ccc1F)N1CCN2CCCC2C1 (stereo unspecified),6.9%
CCCNc1nc(N2CCOCC2)nc(N2CCOCC2)n1,3.9%
COc1ccc(CC(=O)NC(C)c2nnc(SCC(=O)Nc3ccccc3)n2C)cc1 (stereo unspecified),-14.2%
COc1ccc(C2=NOC3(CC(=O)N(c4ccc(Cl)cc4)C3=O)C2)c(OC)c1 (stereo unspecified),-1.1%
CCOC(=O)CCNC(=O)CCNC(=O)C(c1ccccc1)c1ccccc1,1.0%
CC(C)(C)OC(=O)N1CCC(c2c(C(=O)NCCc3ccccc3)cnn2-c2ccc(F)cc2)CC1,4.5%
C=CC[C@H](CC(=O)N[C@H](CO)Cc1ccccc1)C(=O)N[C@@H](COC(=O)[C@@H](CC=C)Cc1ccc(F)cc1)Cc1c[nH]c2ccccc12,-10.0%
COc1ccc(C(=O)NCC(=O)N/N=C(\C)Cc2ccccc2)cc1,-11.9%
O=C(CSc1nc2c(cnn2-c2ccc(F)cc2)c(=O)[nH]1)N1CCCCC1,12.0%
Cc1ccc(C(=O)Nc2ccccc2C(=O)NCc2ccccc2)cc1,-7.1%
COc1ccc(CN2CNc3c(c(=O)n(C)c(=O)n3C)C2)cc1,-1.8%

# This is a subset (hit frequency here may not be typical).
